STK33 kinase inh: inhibitors of purified STK33 kinase, primary screen, biochemical, ADP-Glo luminescence, homogeneous, cell-free; MBP phosphorylation; inhibition, % at 10 µM; Serine/threonine-protein kinase 33 (Homo sapiens), Q9BYT3; hit rate 0.073% among 320,000;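 active = inhibition at or above 25%, using the most active replicate where run in duplicate; inactive = inhibition below 25%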
Target sequence (Q9BYT3 whole entry, looked up): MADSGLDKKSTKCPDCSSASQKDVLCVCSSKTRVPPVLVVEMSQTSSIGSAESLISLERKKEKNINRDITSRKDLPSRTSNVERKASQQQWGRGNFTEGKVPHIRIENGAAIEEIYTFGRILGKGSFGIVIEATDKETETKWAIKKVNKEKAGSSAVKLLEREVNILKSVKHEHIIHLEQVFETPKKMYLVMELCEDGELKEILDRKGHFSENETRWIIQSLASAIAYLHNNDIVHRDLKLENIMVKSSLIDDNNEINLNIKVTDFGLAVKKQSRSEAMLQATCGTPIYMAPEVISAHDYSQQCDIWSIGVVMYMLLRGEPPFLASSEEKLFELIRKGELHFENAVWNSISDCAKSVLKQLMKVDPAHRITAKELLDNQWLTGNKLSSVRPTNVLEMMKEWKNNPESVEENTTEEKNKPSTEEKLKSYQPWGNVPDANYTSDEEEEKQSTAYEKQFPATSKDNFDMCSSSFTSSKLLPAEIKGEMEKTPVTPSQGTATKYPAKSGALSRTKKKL
Starred values were filed as active, the others as inactive; & = joins results of further samples. An excerpt, and most or all hits are left out here.

SMILES | STK33 kinase inh
CSCCC(NC(=O)OCc1ccccc1)C(=O)NCc1cccnc1 (configuration not stated) | -1.6
Cc1ccc(C)c(NC(=O)COC(=O)COc2cccc3c2OC(C)(C)C3)c1 | -0.5
O=C(C[n+]1ccccc1)N/N=C/c1cc(Br)ccc1O | 1.1
Cc1ccc(C(=O)Nc2nnc(Cc3ccccc3)s2)cc1 | -0.1
Cc1cccc(OC(C)C(=O)N2CCN(Cc3ccc4c(c3)OCO4)CC2)c1 (configuration not stated) | -0.8
Cc1cc(C)n(C(=O)COc2ccc([N+](=O)[O-])cc2)n1 | 2.7
CCOc1cc(C(=O)Nc2c3c(nn2C(C)(C)C)CS(=O)C3)cc(OCC)c1OCC (configuration not stated) | -0.7
COc1ccc([C@@H]2CC=C(C(=O)O)[C@H](c3cccc(Cl)c3)N2S(=O)(=O)c2ccc(C)cc2)cc1OC | -0.5
CN(c1ccc(C(=O)NCCc2ccccc2)cc1)S(C)(=O)=O | -0.1
COc1ccccc1CN1CCNC(=O)C1CC(=O)NCCCn1cccn1 (configuration not stated) | -1.7
CC(=O)NC(Cc1ccc(F)c(F)c1)C(=O)NC1CCN(C(=O)c2ccc(C)cc2)CC1 (configuration not stated) | -0.4
O=C(NCCNCCO)C1(C(F)(F)F)C/C(=C\Cc2ccccc2)CCCO1 (configuration not stated) | -0.2
Cc1cccc(N(Cc2cc3ccccc3[nH]c2=O)C(=O)c2ccco2)c1C | -1.1
CCCC(=O)Nc1ccc(Cl)c(NC(=S)NC(=O)C(C)C)c1 | 0.1
Cc1ccc(S(=O)(=O)NC(=O)NC(C)(C)C)cc1 | -2.2

The final 4 records of the part above come first, to join the parts.
SMILES | STK33 kinase inh
O=C(NCCNCCO)C1(C(F)(F)F)C/C(=C\Cc2ccccc2)CCCO1 (configuration not stated) | -0.2
Cc1cccc(N(Cc2cc3ccccc3[nH]c2=O)C(=O)c2ccco2)c1C | -1.1
CCCC(=O)Nc1ccc(Cl)c(NC(=S)NC(=O)C(C)C)c1 | 0.1
Cc1ccc(S(=O)(=O)NC(=O)NC(C)(C)C)cc1 | -2.2
COc1ccc(/C=N/NC(=O)c2ccco2)cc1Cn1nc(C)cc1C | -0.1
COc1cc(OC)c(NC(C)C(=O)NCc2ccccc2)cc1Cl (configuration not stated) | -1.3
Cc1c(Cl)cccc1NC(=O)CN1CCC(C(O)(c2ccccc2)c2ccccc2)CC1 | -0.8
COc1ccc(N2CC(C(=O)N[C@@H](C)C(=O)N3CCCCC3)CC2=O)cc1 (some centres not stated) | 0.4
Cc1ccc(N(C(=O)C(F)(F)F)C(C(=O)NC2CCCCC2)c2cccs2)cc1C (configuration not stated) | 0.1
O=C(C1CCCN1S(=O)(=O)c1ccc(Br)cc1)N1CCOCC1 (configuration not stated) | -1.3
COc1cc([N+](=O)[O-])cc2sc(NC(C)=O)nc12 | 0.2
COCCN(C(=O)Nc1ccccc1)C(C)c1cccnc1 (configuration not stated) | -0.9
Cc1csc(NC(=O)CSc2nc3ccccc3c3c2CCCC3)n1 | 0.3
CC(C)(CNCC(O)c1ccccc1)N1CCOCC1 (configuration not stated) | -0.5
Cc1c(-c2ccccc2)nc2ccccc2c1C(=O)NCc1cccs1 | -1.2
Cc1cccc(NC(=O)C2CCCN(C(=O)Nc3ccc(F)cc3)C2)c1C (configuration not stated) | 0.4
COC(=O)CC(c1ccc(C#N)cc1)n1c(C)ccc1C (configuration not stated) | -1.5
CCOC(=O)c1[nH]c2ccccc2c1NC(=O)c1cc(OC)c(OC)c(OC)c1 | 0.3
Cc1nc(NCCN2CCOCC2)c2nnn(Cc3c(F)cccc3Cl)c2n1 | -0.5

Part of the list above in order of formula weight, rising.
SMILES | STK33 kinase inh
CC(C)(CNCC(O)c1ccccc1)N1CCOCC1 (configuration not stated) | -0.5
Cc1csc(NC(=O)CSc2nc3ccccc3c3c2CCCC3)n1 | 0.3
COc1ccc(N2CC(C(=O)N[C@@H](C)C(=O)N3CCCCC3)CC2=O)cc1 (some centres not stated) | 0.4

(further entries)
SMILES | STK33 kinase inh
Cc1cc(NC(=O)CSc2nnc(-c3ccccc3)o2)no1 | -0.5
O=C(NNC(=O)C1CCN(S(=O)(=O)c2ccc(Cl)cc2)CC1)c1ccccc1 | -0.6
O=C(CSc1nc2cc(Cl)ccc2o1)c1cccs1 | 0.0
O=C(c1ccccc1)N1CCCC(C(=O)N2CCCCC2)C1 (configuration not stated) | 1.1
Cc1cccc2sc(NC(=O)c3ccc(OCC4CCCO4)cc3)nc12 (configuration not stated) | -0.6
O=C1NC2(CCCCCC2)C(=O)N1Cc1ccccc1 | 0.6
COC(/C=C/Nc1ccc(OC)cc1)=C(C#N)C#N | -1.6
Cc1ccc(Cn2c(SCC(=O)NCC3CCCO3)nc3ccsc3c2=O)cc1 (configuration not stated) | -2.0
CC(NC(=O)Cn1nc(C(=O)O)c2ccccc2c1=O)c1ccccc1 (configuration not stated) | -0.4
CC(Oc1cc(F)ccc1[N+](=O)[O-])C(=O)N(C)CC(=O)Nc1ccccc1C(F)(F)F (configuration not stated) | -0.8
Cc1cccc(OCC(=O)NS(=O)(=O)c2ccc(Br)cc2)c1 | 0.5
CC(=O)c1c(C)[nH]c(C(=O)CSc2nnc(CN3CCCCCC3=O)n2-c2ccccn2)c1C | -0.5
O=C(CSC(=S)N1CCCCC1)N1N=CCC1c1ccccc1 (configuration not stated) | -0.4
C=CCn1cccc(C(=O)Nc2ccc(OC)cc2OC)c1=O | -0.3
Nc1ccc(-n2nc3ccccc3n2)cc1 | -0.8
Cc1nc(NS(=O)(=O)c2ccc(Br)cc2)c2c3c(sc2n1)CCC3 | 0.1
COc1ccc(NC(=O)CN(C)C(=O)/C=C/c2cn(-c3ccccc3)nc2-c2cccs2)cc1 | -0.4
COc1cccc(NC(=O)CN(C)C(=O)CCc2nc3sc4c(c3c(=O)[nH]2)CCCC4)c1 | -2.6
Cc1sc2nc(SCC(=O)N3CCOCC3)[nH]c(=O)c2c1-c1ccccc1 | 1.3
O=C(N/N=C/c1ccncc1)c1cc2c(ccc3ccccc32)o1 | 2.0
COc1cc(C2C(C(=O)OCCC#N)=C(C)NC3=C2S(=O)(=O)c2ccccc23)cc(OC)c1OC (configuration not stated) | -0.3
Cc1cc(/C=C(/C#N)C(=O)O)c(C)n1CCC(C)C | -0.8
Cc1ccccc1NC(=O)c1cccc(C(F)(F)F)c1 | -0.4
Cc1cc(NC(=O)CN2C(=O)S/C(=C\c3ccccc3)C2=O)no1 | 0.3
O=C(CN1C(=O)/C(=C\c2cccc(F)c2)Oc2ccccc21)N1CCN(c2ccccn2)CC1 | -0.3
CN1CCN(CP(=O)(N2CCOCC2)N2CCOCC2)CC1 | -1.1
CCCCCc1c(C)nc(N2CCOCC2)[nH]c1=O | 0.2
O=C(CCCSc1nc2ccccc2[nH]1)NC1=NCCS1 | -0.8
Cc1oc(-c2ccc(Cl)cc2)nc1CS(=O)CC(=O)NCCCN1CCOCC1 (configuration not stated) | -0.4
Cc1cc(C)c(C#N)c(SC(F)F)n1 | -1.0

Later entries.
| Compound | STK33 kinase inh |
| --- | --- |
| CCCc1[nH]nc2c1C1(CCN(C(=O)OCc3ccccc3)CC1)C(C#N)=C(N)O2 | 0.1 |
| Cc1nnc(SCC(=O)Nc2cccc(C(F)(F)F)c2)[nH]c1=O | -0.1 |
| COC(=O)c1cc(OC)c(OC)cc1NC(=O)c1cccc(C)c1 | -0.8 |
| Cc1nc(N2CCN(C)CC2)c2c3c(sc2n1)CCCC3 | -2.3 |
| CCN(CC)C(=O)Cn1cc(C(=O)C(=O)NCCc2c[nH]c3ccccc23)c2ccccc21 | 0.3 |
| O=C(COc1ccccc1[N+](=O)[O-])Nc1ccc2oc(=O)ccc2c1 | -1.3 |
| COc1ccc(N/C(C)=C2/C(=O)C(=O)N(CCO)C2c2ccc(Br)cc2)cc1 (configuration not stated) | 0.1 |
| Cc1c(Br)c([N+](=O)[O-])nn1CC(=O)Nc1ccc(C(C)C)cc1 | -4.1 |
| CCOC(=O)c1nn(-c2ccc(F)cc2)cc1O | -1.1 |
| COc1cccc(C2C(C(C)=O)=C(O)C(=O)N2CCNCCO)c1 (configuration not stated) | -2.0 |
| CC(C)CC(=O)N1CCN(C(=O)c2ccc(F)cc2)CC1 | 0.0 |
| CC1CCCCC12NC(=O)N(CC(=O)Nc1ccc(S(=O)(=O)N3CCOCC3)cc1)C2=O (configuration not stated) | -1.2 |
| COc1cc(=O)n(C)c2c(O)cccc12 | -0.9 |
| Cc1ccc(-n2nc3c(=O)n(CCCC(=O)N4CCCCC4)nc(C)c3c2C)cc1 | -1.2 |
| CCOC(=O)N1CCN(CC(=O)Nc2sc(CC)cc2C(=O)c2ccc(OC)cc2)CC1 | -1.7 |
| CC(C)C(=O)Nc1ccc2c(c1)nc(CCN1CCCCC1)n2C | -0.2 |
| Cc1cc(C)n(Cc2ccc(Cl)cc2Cl)c(=O)c1S(=O)(=O)c1ccccc1 | -0.9 |
| CCN(CC)c1ccc(SS(=O)(=O)O)cc1 | -0.9&-1.7 |
| Cc1cccc(COc2ncnc3nc[nH]c23)c1 | 0.3 |
| O=C(c1cccs1)N(CCN1CCCCC1)CC1CCCN(C2CCCC2)C1 (configuration not stated) | 3.9 |
| CC(C)(C)OC(=O)CNC(=O)c1nc[nH]c1C(=O)NCC(=O)OC(C)(C)C | -0.7 |
| CCCCn1nnnc1SCC(=O)Nc1ccc(C)cc1 | -1.2 |
| O=C1Cc2cc(NS(=O)(=O)c3ccc([N+](=O)[O-])cc3)cc3c2N1CCC3 | -2.8 |
| Cc1ccc(C(c2sc3nc(C)nn3c2O)N2CCN(c3ccc(F)cc3)CC2)cc1 (configuration not stated) | -0.2 |
| O=C(Oc1ccc(C(=S)N2CCCCC2)cc1)c1ccccc1F | 0.6 |
| O=C(Nc1ncc2c(n1)CC(c1ccc(Cl)cc1)CC2=O)c1ccco1 (configuration not stated) | -0.7 |
| O=C1C(c2ccc(F)cc2)N(Cc2ccc3c(c2)OCO3)C(=O)CN1C1CCCCCC1 (configuration not stated) | -0.7 |
| O=C(NCC1CCCO1)Nc1ccc2c(c1)OCO2 (configuration not stated) | -2.1 |
| COc1ccc(CCNC(=O)CN2CCOc3ccccc32)cc1OC | -0.2 |
| C=CCn1c(C2CCCCC2)n[nH]c1=S | -1.0 |

By substructure, those above with a furan ring, fused or not
| Compound | STK33 kinase inh |
| --- | --- |
| Cc1cccc(N(Cc2cc3ccccc3[nH]c2=O)C(=O)c2ccco2)c1C | -1.1 |
| COc1ccc(/C=N/NC(=O)c2ccco2)cc1Cn1nc(C)cc1C | -0.1 |
| O=C(N/N=C/c1ccncc1)c1cc2c(ccc3ccccc32)o1 | 2.0 |
| O=C(Nc1ncc2c(n1)CC(c1ccc(Cl)cc1)CC2=O)c1ccco1 (configuration not stated) | -0.7 |

Next part:
| Compound | STK33 kinase inh |
| --- | --- |
| O=C(NNC(=O)C1C2C=CC(C2)C1C(=O)O)c1ccccc1 (configuration not stated) | 1.0 |
| Cc1ccc(S(=O)(=O)N(CC(=O)NCc2ccncc2)Cc2ccccc2F)cc1 | -1.1 |
| O=C(O)CCC(=O)N1CCc2cc(S(=O)(=O)N3CCN(c4ccc(F)cc4)CC3)ccc21 | 0.0 |
| CCOC(=O)c1c(S(=O)(=O)NCC(=O)N2CCN(c3cccc(OC)c3)CC2)c(C)n(C)c1C | -2.3 |
| Cc1ccc(N(CC(=O)Nc2ccc(F)cc2)S(=O)(=O)N2CCCC2)cc1 | -2.8 |
| Cc1cc(C(=O)CSc2nnc(-c3cccnc3)n2-c2ccccc2)c(C)n1CC1CCCO1 (configuration not stated) | -0.7 |
| CC1=C(C)[N+](=O)C2(O)CCCCC2(C)N1[O-] (configuration not stated) | -0.7 |
| CCC(C)c1ccc(S(=O)(=O)N2CCN(c3ccccn3)CC2)cc1 (configuration not stated) | -0.1 |
| COc1cc2c(cc1OC)C(c1ccncc1)CC(=O)N2 (configuration not stated) | 5.7 |
| Cc1cccc(NC(=O)c2ccc(N3CCOCC3)c([N+](=O)[O-])c2)n1 | 1.6 |
| C=CCOc1ccc(/C=N/Nc2ccccn2)cc1OC | 0.0 |
| Cc1ccc(-c2nc3ccccc3c(=O)n2N)cc1 | -0.5 |
| CCN(CC(=O)Nc1ccc(NC(C)=O)cc1)C(=O)c1cccc(S(=O)(=O)N2CCCC2)c1 | 0.8 |
| CC(C(=O)N1CCN(C(=O)c2ccco2)CC1)n1sc2ccccc2c1=O (configuration not stated) | 0.7 |
| CCCOc1ccc(/C(O)=C2/C(=O)C(=O)N(CCCOC)C2c2ccncc2)cc1 (configuration not stated) | -0.4 |
| Cc1ccc(C(=O)Nc2ccc(S(=O)(=O)NCc3ccco3)cc2)cc1 | 0.4 |
| CC1=CC(C)C(COC(=O)CN2CCCCC2)C(C)C1 (configuration not stated) | -0.7 |
| CC(=O)c1ccc(N2CCN(C(=O)c3nn(C)c4c3CS(=O)(=O)c3ccccc3-4)CC2)cc1 | 1.3 |
| COC(=O)c1cnn(-c2nc(-c3ccccc3)cs2)c1N | 0.3 |
| O=C(Nc1nnc(-c2ccco2)s1)C1CCN(S(=O)(=O)c2ccc(Cl)cc2)CC1 | -0.8 |
| Cn1cccc1C1NC(=O)c2c(sc3c2CCC(C(C)(C)C)C3)N1 (configuration not stated) | 0.9 |
| Cc1ccc2cc(C#N)c(NCc3ccccc3)nc2c1 | -0.2 |
| Oc1c(C(Nc2nc3ccccc3s2)c2ccco2)ccc2cccnc12 (configuration not stated) | 7.1 |
| Cc1cc2nc(C3CCCN(C(=S)Nc4ccccc4)C3)[nH]c2cc1C (configuration not stated) | -1.7 |
| Cc1ccc(CN2CCN(Cc3cccc(-n4cccn4)c3)CC2CCO)cc1 (configuration not stated) | -0.8 |
| CC(C)Oc1ccc(C(CC(=O)O)NC(=O)c2cccs2)cc1 (configuration not stated) | 1.8 |
| O=C1N/C(=C/c2ccsc2)C(=O)N1c1ccccc1 | -0.2 |
| Cc1ccc2c(c1)C(O)(c1c(C)[nH]c3ccccc13)C(=O)N2 (configuration not stated) | -0.3 |
